Rango dissoc inh: qHTS Assay for Inhibitors of RanGTP induced Rango (Ran-regulated importin-beta cargo) - Importin beta complex dissociation; Snurportin-1 (Homo sapiens) + GTP-binding nuclear protein Ran (Homo sapiens) + Importin …; Biochemical FRET Rango-importin beta, RanGTP-induced dissociation; Potency, µM (top dose mostly 46.1 µM), for inactives: at the top dose activity change, negative = inhibition; 0.071% of 340,000 active; AID 540253, 2011; active means falling FRET ratio curve, often poorly fitted, with flat reads before Ran was added; inconclusive means other falling curves, or compound fluorescence or quenching; inactive means flat or rising ratio curve;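 also: potency is read from the fitted curve at half-maximal effect; % of control where 0% means no effect; nearly all actives have a fitted effect of over 45% in size; -100% = wells without RanGTP and RCC1; the record marks most hits as doubtful in a second field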
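Rango/importin beta premix (0.1/0.25 uM final), PBS + 1 mM DTT + 0.02% Tween-20 + 0.1% BSA; cpd 5 min RT; FRET pre-read; + RanGTP-RCC1 (0.6 uM Ran, 2 mM GTP, 0.2 uM RCC1); 45 min RT; FRET post-read, ex 430, em 486/530 nm.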
GLA inh pH 4.5: qHTS Assay for Inhibitors of Human alpha-Galactosidase at pH 4.5. Alpha-galactosidase A (Homo sapiens), P06280. purified enzyme, 4-MU-alpha-Gal fluorescence, pH 4.5. activity change, negative = inhibition, % at 105 µM. 230,000 tested, under 10 active. AID 1467, 2008; inconclusive = small, poorly fitted or top-dose-only inhibition, or a rising curve; inactive = flat fitted curve, though single readings scatter; no compound was filed as active;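 also: 0% = full activity with enzyme and -100% = basal without enzyme; dose as in the result columns while the protocol names 77 µM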
Target sequence (P06280 whole entry, looked up): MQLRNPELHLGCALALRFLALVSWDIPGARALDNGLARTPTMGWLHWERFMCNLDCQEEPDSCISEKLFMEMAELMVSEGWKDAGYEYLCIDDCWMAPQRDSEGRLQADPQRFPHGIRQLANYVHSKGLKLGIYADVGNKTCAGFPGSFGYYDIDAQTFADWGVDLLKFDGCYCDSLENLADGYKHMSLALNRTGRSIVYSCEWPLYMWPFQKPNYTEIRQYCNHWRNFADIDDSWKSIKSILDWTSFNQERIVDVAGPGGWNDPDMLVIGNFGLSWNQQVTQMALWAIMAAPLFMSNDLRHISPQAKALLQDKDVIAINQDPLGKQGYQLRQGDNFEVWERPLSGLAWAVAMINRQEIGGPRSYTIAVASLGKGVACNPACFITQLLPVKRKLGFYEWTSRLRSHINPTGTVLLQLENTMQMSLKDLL
Rango-impB inh: qHTS Assay for Inhibitors of Rango (Ran-regulated importin-beta cargo) - Importin beta complex formation; Importin subunit beta-1 (Homo sapiens), Q14974; Rango CFP/YFP FRET sensor + importin beta, 45 min; Potency, µM (highest dose often 92.2 µM), without a hit: top-dose inhibition of complex formation; 0.031% of 340,000 active; AID 540263, 2011; active = rising FRET ratio curve, often small or poorly fitted; inconclusive = mostly compound fluorescence or quenching in the first reads; inactive = flat curves in all reads;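 also: potency is read from the fitted curve at half-maximal effect; 0% = DMSO wells and 100% = buffer wells lacking importin beta; nearly all actives have a fitted effect of over 15% in size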
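FRET biosensor Rango (snurportin 1 IBB between N-terminal EYFP and C-terminal Cerulean), 50 nM in PBS/1 mM DTT/0.02% Tween-20/0.1% BSA, preincubated 5 min RT with compound; 0.125 microM importin beta added, 45 min RT, CFP/YFP FRET ratio read.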
miR-21 reporter: qHTS Assay for Modulators of miRNAs and/orActivators of miR-21; Potency, µM (series often up to 38.3 µM), for the others: top-dose reporter change, positive = more light; HeLa miR-21 FLuc reporter, luciferase, 48 h; 340,000 tested, under 10 active; active = well fitted rising curve with a large enough effect; inconclusive = small, poorly fitted or top-dose-only effect; inactive = no such curve, though single readings can be large or run the other way;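 also: % of control where 0% means no effect; miR-21 action dims this reporter so a rising signal means less miR-21 action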
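Luminescence from a firefly luciferase reporter carrying a miR-21 binding site downstream, stably expressed under a CMV promoter in HeLa cells that make miR-21 endogenously, reports miRNA modulation after 48 h compound exposure up to approximately 40uM final.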
Active calls of the source: *; u = inconclusive; x = not tested or not shown; & = joins results of further samples. These rows are one share of the data (hit frequency here may not be typical).

Below each SMILES – Rango dissoc inh	GLA inh pH 4.5	Rango-impB inh	miR-21 reporter
COc1ccccc1-n1c(SC)nc2c(sc(=S)n2-c2ccccc2)c1=O
    -14.3%	x	-0.9%	2.9%
COc1ccc(Cc2nc3ccc(C(=O)NCC4CCOCC4)cc3o2)cc1OC
    1.1%	x	-1.2%	-23.7%
C=CCN(CC=C)C(=O)c1ccc(OC2CCN(S(=O)(=O)N(C)C)CC2)cc1
    -2.2%	2.9	-5.4%	-24.4%
COc1ccccc1N(CC(=O)N/N=C(\C)c1ccccc1O)S(=O)(=O)c1ccc(C)cc1
    -19.2%	x	-5.2%	18.7%
CCOc1ccccc1C(=O)Nc1ccc(C(=O)c2ccccc2)cc1
    -20.5%	x	-3.7%	-4.8%
CC(=O)Nc1ccc(N2C(=O)CSC2c2cccc([N+](=O)[O-])c2)cc1 (stereo unspecified)
    -10.4%	0.0	-3.5%	-5.0%
CCCCN(CC)CCNC(=O)C1CCCN(S(=O)(=O)c2cccc3nsnc23)C1 (stereo unspecified)
    -4.4%	x	-1.4%	-2.8%&-6.8%
N#Cc1ccc(NC(=O)CN2CCN(c3ccccn3)CC2)cc1
    -8.1%	x	-3.0%	-2.8%
CCOCC(=O)Nc1ccc([N+](=O)[O-])cc1Cl
    3.3%	-8.6	1.5%	-1.2%
Cn1c(/C=C/c2ccccc2[N+](=O)[O-])nc2ccccc2c1=O
    -9.8%	x	5.5%	-14.0%
CCOc1ccc(Br)cc1S(=O)(=O)N1CC(C)OC(C)C1 (stereo unspecified)
    8.4%	3.5	-2.8%	-3.6%
O=C(COC(=O)c1ccc(CSc2ccc(Cl)cc2)cc1)Nc1ccccc1
    0.2%	-2.5	0.9%	-14.5%
CCn1c(SCC(=O)c2cc(C)n(-c3ccc(C(=O)OC)cc3)c2C)nnc1-c1cccnc1
    3.8%	4.9	0.1%	12.8%
Cc1ccc(C)c(NC(=S)NNC(=O)c2csc3c2CCCC3)c1
    7.3%	-4.4	0.1%	-2.0%
COC(=O)CCCNS(=O)(=O)c1ccc2ccccc2c1
    -3.6%	-10.4	0.7%	0.1%
CN1C=CC(=O)[C@@H](O)[C@H]1c1ccccc1Br
    -1.5%	x	-0.7%	x
C[C@@H]1NC(=O)c2cc([N+](=O)[O-])cc(I)c2NCCCC[C@@H](C(N)=O)NC(=O)[C@H](CCC(=O)O)NC1=O
    1.9%	1.4	4.3%	-4.1%
COC(=O)c1ccccc1NC(=O)Cn1cnc2c1c(=O)n(C)c(=O)n2C
    18.4%	x	0.2%	x
CC1CCCN(CCCNC(=O)c2ccc(N3CCCC3=O)cc2)C1 (stereo unspecified)
    -3.1%	x	-2.5%	-3.3%
Cc1cccc(OCC(=O)NCCCNC(=O)c2cnccn2)c1
    -0.7%	x	0.3%	-3.5%
COc1cc(/C=C(\C#N)c2nc3c(s2)CC(C)CC3)ccc1O (stereo unspecified)
    x	7.9	x	-56.5%
O=C1CCC(C(=O)N(Cc2cccs2)C2(C(=O)NC3CCCCC3)CCCCC2)N1 (stereo unspecified)
    -11.1%	0.3	-0.9%	-0.1%
CC1=NNC(=O)C1CCC(=O)N/N=C(/C)c1ccc([N+](=O)[O-])cc1 (stereo unspecified)
    4.6%	-1.0	6.0%	1.3%
CCOC(=O)CN(C#N)c1nc(C)cc(C)n1
    1.2%	4.8	-0.9%	-1.1%
CC1(C)Cc2cccc(OCC(=O)OCC(=O)Nc3ccccc3)c2O1
    6.4%	x	-1.3%	x
Cc1ccn2c(=O)nc(SCC(=O)N3CCC(Cc4ccccc4)CC3)nc2c1
    0.4%	x	-4.4%	x
C=CCc1cccc(/C=N/n2c(C)nnc2C)c1O
    u	1.5	u	-4.1%
Cc1cc(C(=O)CSc2cccc[n+]2[O-])c(C)n1-c1ccc(Br)cc1
    x	-3.8	x	-32.7%
COc1ccc(CCNC(=O)CSc2nc(-c3ccc(OC)c(OC)c3)ccc2C#N)cc1
    -18.5%	27.5	u	-13.3%
CCOC(=O)c1ccc2[nH]c3c(c2c1)CCCCC3=O
    -19.4%	-1.8	u	-52.2%
O=C(CNCc1cccs1)NC12CC3CC(CC(C3)C1)C2
    1.6%	-10.7	0.5%	-18.6%
CC(C(=O)Nc1ccc(C#N)cc1)N(C)Cc1cccs1 (stereo unspecified)
    -18.9%	x	-1.7%	-3.3%
COc1ccccc1NC(=O)N1CCCC1C(=O)NCC1CCCO1 (stereo unspecified)
    0.4%	6.7	u	-0.4%
Cc1nc(SCC(=O)c2ccccc2)c([N+](=O)[O-])[nH]1
    3.8%	-13.3	0.4%	-11.3%
CC(SCc1ccccc1)C(=O)Nc1ccc2c(c1)OCO2 (stereo unspecified)
    13.8%	1.6	-0.8%	-38.9%
Cc1ccnc(NC(=O)CCC(=O)N(CC(=O)NCc2ccccc2)Cc2ccccc2)c1
    -5.2%	x	3.4%	0.0%
COc1c(Cl)cc(Cl)cc1/C=N/n1cnnc1
    u	-8.9	u	1.0%
CSc1ccccc1NC(=O)c1ccc(N2CC3CC(C2)c2cccc(=O)n2C3)c(NC(=O)c2cccnc2)c1 (stereo unspecified)
    0.5%	x	1.4%	-10.0%
CCc1c(C)nc2ncnn2c1N1CCN(S(=O)(=O)c2ccc(OC)cc2)CC1
    8.7%	5.2	3.1%	-0.6%
COc1cc(Cl)cc(CN2CCC(CCC(=O)NC3CC3)CC2)c1OC
    2.8%	x	4.2%	-1.5%
O=C(NCCc1ccccn1)c1n[nH]c(=O)c2ccccc12
    7.4%	4.1	-1.5%	-17.8%
COc1cc2c(cc1OC)C(Nc1ccc(S(N)(=O)=O)cc1)=NC(C)(C)C2
    -1.8%	-3.2	-1.5%	-7.6%
CC1CCCC(NC(=O)CN2CCN(S(=O)(=O)c3ccc(Br)s3)CC2)C1C (stereo unspecified)
    13.9%	x	2.9%	x
COc1cccc(O)c1CN1CCC(Oc2ccc(C(=O)NCc3ccccn3)cc2)CC1
    -3.7%	x	1.4%	4.8%
C/C(=N\Nc1ccc(Cl)c(C(=O)O)c1)c1ccccn1
    -2.2%	5.6	-9.9%	-76.2%
NC(=O)c1ccc(Oc2ccc3ccc(=O)oc3c2)c([N+](=O)[O-])c1
    -15.2%	3.7	0.3%	-3.7%
Cc1csc(=O)n1CCC(=O)OCC(=O)N(CC(C)C)c1c(N)n(Cc2ccccc2)c(=O)[nH]c1=O
    1.0%	x	-2.5%	2.9%
COc1ccc(S(=O)(=O)N2CCCOC2CNC(=O)C(=O)NCc2ccco2)cc1C (stereo unspecified)
    -8.7%	1.0	1.1%	13.8%
CCOC(=O)C1CCCN(C(=O)c2cccc(S(=O)(=O)N(C)c3c(C)n(C)n(-c4ccccc4)c3=O)c2)C1 (stereo unspecified)
    -3.2%	x	0.2%	-5.5%
COc1ccc(Cc2nnc(SCC(=O)Nc3ccccc3C)n(N)c2=O)cc1
    -16.1%	x	u	x
O=C(CSCc1ccccc1)N1CCN(S(=O)(=O)c2cccc(F)c2)CC1
    -0.8%	x	-1.1%	x
O=C(COC(=O)CCc1c[nH]c2ccccc12)NCc1ccccc1
    13.3%	2.4	-0.1%	-5.6%
CCCn1nnnc1NCc1ccc(N(C)C)cc1
    3.8%	x	-1.1%	-4.5%
COc1ccccc1OCCSc1nc2ccccc2n1CCC(=O)O
    28.3%	x	-2.9%	-7.2%
Nc1nnc(SCc2ccc([N+](=O)[O-])cc2)s1
    6.2%	-0.2	u	-7.1%
CSc1nc2ncncc2[nH]1
    -5.9%	x	0.0%	x
O=C(O)C(c1ccccc1)N1CCCCC1 (stereo unspecified)
    -9.7%	6.0	-0.3%	-1.9%
CC(=O)N1CCc2cc(Br)cc(S(=O)(=O)NCc3ccc(Cl)cc3)c21
    -0.8%	x	2.0%	7.0%
N#Cc1c(NCc2ccccc2)ccnc1Cl
    -13.3%	x	0.2%	x
CCOC(=O)C1CCCN(C(=O)COc2ccc(C(=O)c3ccc(F)cc3)cc2)C1 (stereo unspecified)
    -1.1%	x	3.2%	x

The list goes on:
Below each SMILES – Rango dissoc inh	GLA inh pH 4.5	Rango-impB inh	miR-21 reporter
CC1CCCN(C(=O)Nc2ccc(Br)cc2Cl)C1 (stereo unspecified)
    -2.8%	12.3	-0.1%	-50.5%
CCCOc1ccccc1N/C(=N\S(=O)(=O)c1ccc(C)cc1)Nc1nc(C)cc(C)n1
    3.0%	x	-0.3%	x
CCC1CCCCN1S(=O)(=O)c1ccc(S(=O)(=O)N2CCN(S(=O)(=O)CC)CC2)cc1 (stereo unspecified)
    -11.0%	3.4	1.2%	-3.2%
C=CCC[C@@H](Cc1ccc(F)cc1)C(=O)OC[C@H](C)NC(=O)[C@H](CC=C)CC(=O)N(CCO)Cc1ccccc1
    -6.1%	x	1.4%	x
CN(C)C(=O)c1ccc(NC(=O)COC(=O)/C=C/c2cccs2)cc1
    11.5%	x	1.4%	x
O=C1C2CCCN2C(c2cccs2)N1c1ccc(Cl)cc1 (stereo unspecified)
    -16.4%	0.8	1.2%	11.5%
O=[N+]([O-])c1cccc2ccc(/C=C/c3ccc(C(F)(F)F)cc3)nc12
    -5.4%	10.0	u	-19.7%
CC(C)c1nc(C(=O)N2CCc3c([nH]c4ccccc34)C2c2ccccn2)cs1 (stereo unspecified)
    -12.7%	-17.8	1.2%	-6.1%
CCCn1c(CN(C)Cc2ccccc2)nc2c1c(=O)n(C)c(=O)n2C
    1.7%	-8.2	-3.7%	15.0%
CCCOc1cccc(-c2cc(-c3n[nH]c(=S)n3CC)c3ccccc3n2)c1
    3.8%	-13.3	3.7%	6.7%
Cn1c(=O)c2ccccc2n(CC(=O)Nc2ccc3c(c2)OCCO3)c1=O
    1.0%	x	4.0%	10.7%
O=C(CNC(=O)c1ccc(Cl)cc1Cl)Nc1ccc(F)cc1
    8.1%	3.7	-1.1%	4.8%
COc1ccc(-c2noc(CCC(=O)NCc3cccnc3)n2)cc1OC
    -7.2%	7.1	-2.0%	-8.0%
CCOc1cccc(NC(=O)/C(C#N)=C\c2cccnc2)c1
    -0.1%	-7.2	1.7%	1.2%
Cc1c(C)n(CCc2ccccc2)c2ncnc(NN)c12
    0.0%	x	-3.7%	-18.3%
CC1C(=O)Nc2ccc(S(=O)(=O)Nc3ccccc3Br)cc2NC1=O (stereo unspecified)
    -5.8%	x	1.5%	-11.4%&18.5%
Cc1ccccc1CS(=O)(=O)CCC(=O)NCc1ccc(F)cc1Cl
    -0.5%	x	-2.5%	-0.8%
Cc1cc(OC(C)C(=O)NCC2CCC(C(=O)O)CC2)c2c(C)c(C)c(=O)oc2c1 (stereo unspecified)
    -1.1%	x	-3.5%	-1.8%
Cc1cccc(CSc2ncnc3c2cnn3Cc2ccccc2)c1
    -2.4%	-0.1	6.7%	-1.5%
O=C(O)C(=Cc1ccccc1[N+](=O)[O-])c1ccccc1
    0.6%	x	-0.2%	x
CCC(C)(C)C1CCC(=NNC(=O)c2ccoc2C)CC1 (stereo unspecified)
    6.0%	-3.1	-1.9%	-59.6%
Cn1c(SCC(=O)NC(=O)NCc2ccccc2)nnc1C(F)(F)F
    -7.9%	x	-1.0%	x
O=C(N/N=C/c1ccsc1)c1cc(O)cc(O)c1
    12.2%	10.8	3.5%	-12.7%
Cc1cccc(N2C(=O)NC3(CCCCC3)C2=O)c1
    19.6%	-2.0	-0.7%	-19.5%
COc1ccccc1Cc1nc(-c2ccc(Br)o2)no1
    29.7%	-6.9	-3.8%	-39.3%
O=C(Nc1cccnc1Cl)c1cc(-c2cccc(Cl)c2)on1
    32.6%	x	0.8%	-8.2%&-14.4%

Bioassay records as filed in PubChem BioAssay.
